KCNQ1 block: human KCNQ1 channel inhibition | B-score at 10 µM | AID 2642 | CHO-K1 KCNQ1, FluxOR thallium flux fluorescence; active compounds read high | 1.3% of 310,000 active | P51787;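 active = compounds whose thallium flux B-score, printed positive for inhibition, exceeds three library SD while starting fluorescence stays within three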;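 also: channel opened by potassium depolarization with thallium stimulus after 20 min compound exposure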
KCNK9 inh: inhibitors of human KCNK9 two-pore domain potassium channel | HEK293 KCNK9, FluxOR thallium flux fluorescence; active compounds read low | B-score at 10 µM | AID 488922 | 1.2% of 310,000 active;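 active = ratio B-score over 3 SD below the library mean, with starting fluorescence within 5 SD of its mean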;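 also: negative B-score means less thallium flux so channel inhibition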
GSK3A inh: blocks human GSK-3 alpha kinase; P49840; ADP-Glo luminescence, 60 min; inhibition, % at 10 µM; 0.1% of 320,000 active; AID 2650;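 in the data active = inhibition above about 50%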;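 also: GST-tagged GSK-3 alpha with peptide substrate and 25 µM ATP; 0% = DMSO neutral wells and 100% = GW8510 positive control wells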
Target sequence (P49840 whole entry, looked up): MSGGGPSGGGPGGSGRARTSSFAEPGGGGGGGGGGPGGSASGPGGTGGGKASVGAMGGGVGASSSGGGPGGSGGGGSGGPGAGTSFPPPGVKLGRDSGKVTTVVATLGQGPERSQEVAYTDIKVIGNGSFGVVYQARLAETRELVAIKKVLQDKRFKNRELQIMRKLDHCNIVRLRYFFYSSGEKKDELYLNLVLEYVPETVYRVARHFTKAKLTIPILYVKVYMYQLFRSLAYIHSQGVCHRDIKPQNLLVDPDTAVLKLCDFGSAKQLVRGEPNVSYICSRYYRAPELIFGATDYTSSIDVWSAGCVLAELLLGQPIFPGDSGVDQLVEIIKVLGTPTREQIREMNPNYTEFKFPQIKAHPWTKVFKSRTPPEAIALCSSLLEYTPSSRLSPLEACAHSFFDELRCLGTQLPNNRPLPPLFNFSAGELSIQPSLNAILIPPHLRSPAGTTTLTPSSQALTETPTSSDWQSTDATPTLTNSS
KCNK3 inh: human KCNK3 channel inhibition, primary screen; O14649; CHO-KCNK3 thallium flux, FluxOR fluorescence; active compounds read low; B-score at 10 µM; 0.84% of 340,000 active; AID 602410;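 active = B-score under library mean minus 4 SD, starting fluorescence ratio at most library mean plus 5 SD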;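 also: more negative B-score means stronger inhibition of thallium flux through KCNK3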
KCNQ1 act: human KCNQ1 channel potentiation or activation | B-score at 10 µM | 0.35% of 310,000 active | CHO-K1 KCNQ1, thallium flux FluxOR fluorescence; active compounds read high | P51787 | AID 2648;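 active = fluorescence ratio B-score, a plate-corrected score, at least three library SD, with initial intensity B-score within 5 SD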
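Assay system: stable KCNQ1 CHO-K1 line; medium: assay buffer, equal DMSO in all wells; timing: 90 min dye loading and 20 min compound exposure, both at room temperature; technique: kinetic FluxOR thallium fluorescence, 10-s 1-Hz baseline, 110-s post-stimulus read; read-out basis: B score of baseline-normalized fluorescence ratio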
PolyA inh: blocks polyadenylation in yeast reporter cells; S. cerevisiae SKY197-pL101 polyadenylation reporter, beta-gal luminescence; efflux-impaired pdr1/pdr3 knockout yeast; score 100 = 6 SD above DMSO; calls only at 12 µM; 0.02% of 300,000 active;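 active = lowest replicate activity score at least 50, where 100 means six control SD above control mean; inconclusive = lowest score under 50 but half or more replicates reach 50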;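 also: yeast exposed to compound for 9 h at 30 °C; higher score means more reporter readthrough which indicates perturbed polyadenylation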
RGS4 pot: RGS4 potentiation or activation. HEK293 M3R/inducible RGS4, carbachol calcium flux Fluo4; active compounds read low. B-score at 10 µM. 0.92% of 310,000 active. AID 463111;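 active = B-score of the integrated calcium signal more than 4 SD below the library mean, with starting fluorescence not abnormally high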;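 also: negative B-score means reduced calcium response which marks RGS4 activation or potentiation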
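Test system: HEK293 cells with stable M3R and inducible RGS4; also added: carbachol at ECmax as muscarinic agonist stimulus; schedule: dye loading 30 min 37 °C, buffer rest 30 min RT; technique: kinetic calcium fluorescence imaging with Fluo4-AM dye, 2 µM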
GSK3B inh: blocks human GSK3beta kinase activity. activity score (negative = inhibition), % at 10 µM. P49841. AID 2097. 0.038% of 300,000 active. GST-GSK3beta kinase, ADP-Glo luminescence, 60 min; active compounds read low;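 active = more than half of replicate wells score below -50%, meaning over 50% inhibition versus plate controls; inconclusive = some replicates but at most half score below -50%; inactive = no replicate scores below -50%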;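 also: 0% = median DMSO wells and -100% = median GW8510 positive control wells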
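Assay system: GST-fused GSK3beta enzyme, cell-free / Medium: Tris pH 7.5 buffer with MgCl2, DTT, BSA, heparin / Also added: peptide substrate plus 25 µM ATP (final) / Compound: 10 µM single point / Timing: kinase reaction with compound 60 min at room temperature / Detection: ADP-Glo luminescence / Benchmarks: DMSO neutral wells and GW8510 at 20 µM as positive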
DYRK1A inh: inhibitors of rat Dyrk1A kinase; 0.43% of 310,000 active; ADP-Glo luminescence, NFATc1 peptide; AID 504441; Q63470; inhibition, % at 12.5 µM; in the data active = inhibition above about 50%;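 also: plate controls were vehicle with enzyme for no effect and no enzyme for full effect; many of its hits are not listed in these tables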
HDAC3 inhib: human HDAC3 inhibition; AID 2718; 0.15% of 320,000 active; inhibition, % at 8.3 µM; recombinant HDAC3, fluorogenic peptide/trypsin coupled, fluorescence; in the data active = inhibition above about 26%, passing the limit was not always enough; inconclusive = no clear call, values can overlap the other calls
Target sequence (O15379 whole entry, looked up): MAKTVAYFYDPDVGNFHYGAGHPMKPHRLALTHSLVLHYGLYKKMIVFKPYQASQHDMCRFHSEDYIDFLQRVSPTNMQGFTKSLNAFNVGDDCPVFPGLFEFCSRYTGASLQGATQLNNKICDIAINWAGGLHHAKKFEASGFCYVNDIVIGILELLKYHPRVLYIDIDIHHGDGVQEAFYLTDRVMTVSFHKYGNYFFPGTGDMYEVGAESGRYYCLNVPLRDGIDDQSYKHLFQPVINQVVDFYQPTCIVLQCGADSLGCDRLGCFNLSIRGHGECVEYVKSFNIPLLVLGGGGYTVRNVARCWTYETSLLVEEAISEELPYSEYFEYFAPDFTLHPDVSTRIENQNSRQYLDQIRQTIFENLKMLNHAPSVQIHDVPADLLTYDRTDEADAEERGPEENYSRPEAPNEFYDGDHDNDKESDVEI
Numbers without * were called inactive; i = inactive; ? = inconclusive; . = not tested or not shown; & = joins results of further samples.

Letters – A = KCNQ1 block; B = KCNK9 inh; C = GSK3A inh; D = KCNK3 inh; E = KCNQ1 act; F = PolyA inh; G = RGS4 pot; H = GSK3B inh; I = DYRK1A inh; J = HDAC3 inhib
CC(C)(C(=O)O)c1ccc([C@H](O)CCCN2CCC(C(O)(c3ccccc3)c3ccccc3)CC2)cc1
  A: i	B: i	C: -1.8	D: i	E: i	F: i	G: i	H: 1.3	I: -1.5	J: 1.5
CCC(=O)N1CCc2cc(S(=O)(=O)NCCC(=O)N3CCN(c4cccc(C)c4)C(C)C3)ccc21 (stereo unspecified)
  A: i	B: i	C: -2.4	D: i	E: i	F: i	G: -8.62*	H: -1.8	I: 0.2	J: 2.3
CC(C)(C)NC(=O)[C@@H]1C[C@@H]2CCCC[C@@H]2CN1C[C@@H](O)[C@H](Cc1ccccc1)NC(=O)[C@H](CC(N)=O)NC(=O)c1ccc2ccccc2n1
  A: i	B: i	C: -2.2&6.5	D: i	E: i	F: i	G: i	H: 5.1&1.5	I: -2.4&0.6	J: 4.0&6.1
CSc1ccc(S(=O)(=O)N2CCC(C(=O)Nc3ccc(NC(C)=O)cc3)CC2)cc1
  A: i	B: i	C: -1.4	D: i	E: i	F: i	G: i	H: -2.6	I: -0.6	J: -1.9
O=C(CCN1CCN(c2ccccc2)CC1)c1ccc(Cl)cc1
  A: i	B: i	C: -3.8	D: i	E: i	F: i	G: i	H: 1.1	I: -6.4	J: 5.1
COc1cc2c(c(OC)c1OC)-c1ccc(OC)c(=O)cc1C(NC(C)=O)CC2 (stereo unspecified)
  A: i	B: i	C: 0.8	D: i	E: i	F: i	G: i	H: 2.7	I: 3.4	J: -0.1
COC(=O)C1=C(C)N(C(C)c2ccccc2)C(=O)C1 (stereo unspecified)
  A: i	B: i	C: -1.0	D: i	E: i	F: i	G: i	H: 2.0	I: 9.7	J: -4.7
Cc1ccccc1NC(=S)N(CCCN1CCOCC1)Cc1cccnc1
  A: i	B: i	C: -1.0	D: i	E: i	F: i	G: i	H: 2.5	I: 1.4	J: -3.2
C/C(=N\NC(=O)CCn1nc(C)cc1C)C(C)(C)C
  A: i	B: i	C: -2.0	D: i	E: i	F: i	G: i	H: 0.9	I: -1.2	J: 6.3
CCOC(=O)N1CCN(Cc2nc(-c3cccc(Cl)c3)no2)CC1
  A: i	B: i	C: -3.9	D: i	E: i	F: i	G: i	H: 1.4	I: 9.6	J: -1.5
NCCNCCNCCN
  A: i	B: i	C: 1.5	D: i	E: i	F: i	G: i	H: -1.8	I: 8.8	J: -1.9
CN1CCN(C(=S)c2cn(Cc3ccccc3F)c3ccccc23)CC1
  A: i	B: i	C: -1.7	D: i	E: i	F: i	G: i	H: -1.4	I: 7.7	J: 2.8
Cc1nc(NS(=O)(=O)c2ccccc2)sc1NC(=O)OC(C)C
  A: i	B: i	C: -3.5	D: i	E: i	F: i	G: i	H: 2.8	I: 0.6	J: -6.2
COc1ccc(NC(=S)Nc2ccccc2)cn1
  A: i	B: i	C: 0.6	D: i	E: i	F: i	G: i	H: -2.7	I: 1.2	J: -0.9
CCOC(=O)CN1CC23C=CC(O2)C(C(=O)NC2CCCCC2)C3C1=O (stereo unspecified)
  A: i	B: i	C: 0.6	D: i	E: i	F: i	G: i	H: -1.4	I: -1.4	J: -2.4
CC(C(=O)N1CCc2ccccc2C1)N1C(=O)c2ccccc2C1=O (stereo unspecified)
  A: i	B: i	C: -2.3	D: i	E: i	F: i	G: i	H: 1.5	I: 5.2	J: -1.6
O=C(c1ccc(Br)cc1)c1cc(-c2ccccn2)c(N2CCOCC2)s1
  A: i	B: i	C: -0.5	D: i	E: i	F: i	G: i	H: -0.5	I: -8.1	J: -0.2
O=CC(O)C1OC(=O)C(O)C1O (stereo unspecified)
  A: .	B: .	C: .	D: i	E: .	F: .	G: .	H: .	I: 0.2	J: .
CCOc1ccccc1CNC(=O)Cn1ccc2cc(S(=O)(=O)N3CCC(C)CC3)ccc21
  A: i	B: i	C: -0.6	D: i	E: i	F: i	G: i	H: -0.4	I: .	J: ?
Cc1ccc(-c2nc3[nH]c(=O)cc(NC(=O)C(C)C)n3n2)cc1
  A: i	B: i	C: -3.6	D: i	E: i	F: i	G: i	H: 0.5	I: -6.9	J: -4.2
Cc1cc(Cl)ccc1C(=O)C1CCCN(C(=O)c2cscn2)C1 (stereo unspecified)
  A: i	B: i	C: -2.8	D: i	E: i	F: i	G: i	H: 3.6	I: 6.7	J: 16.4
Nc1ncnc2c1ncn2[C@@H]1O[C@H](CO)[C@@H](O)[C@H]1O
  A: i	B: i	C: 2.2	D: i	E: i	F: i	G: i	H: -0.6	I: 49.4	J: 12.0
Cc1cccc(C(=O)OC2CCN(C)CC2)c1
  A: i	B: i	C: 1.7	D: i	E: i	F: i	G: i	H: 1.3	I: 34.8	J: -1.0
CCc1ccc(N(CC(=O)NC(C)C)C(=O)CCC(=O)Nc2ccccn2)cc1
  A: i	B: i	C: 7.1	D: i	E: i	F: i	G: i	H: 2.0	I: -5.1	J: -2.0
CCN1CCCC1CNC(=O)c1cc(S(=O)(=O)CC)c(N)cc1OC (stereo unspecified)
  A: i	B: i	C: -5.6	D: .	E: i	F: i	G: i	H: 0.9	I: .	J: 5.9
COc1ccc(CCN(C)C(=O)c2c(C)nn(CC(C)C)c2Cl)cc1OC
  A: i	B: i	C: -3.7	D: i	E: i	F: i	G: i	H: 1.3	I: -2.0	J: 4.3
CN(C)CC/C=C1/c2ccccc2Sc2ccc(Cl)cc21
  A: i	B: i	C: 3.7&-0.6	D: i	E: i	F: i	G: -9.46*	H: -6.0	I: 11.5	J: 2.2&3.5
CC12C=CC(=O)C=C1CCC1C2C(=O)CC2(C)C1CCC2(O)C(=O)CO (stereo unspecified)
  A: .	B: .	C: .	D: i	E: .	F: .	G: .	H: .	I: 10.2	J: .

A portion from further up, as a working copy:
Letters – A = KCNQ1 block; B = KCNK9 inh; C = GSK3A inh; D = KCNK3 inh; E = KCNQ1 act; F = PolyA inh; G = RGS4 pot; H = GSK3B inh; I = DYRK1A inh; J = HDAC3 inhib
CCOC(=O)N1CCN(Cc2nc(-c3cccc(Cl)c3)no2)CC1
  A: i	B: i	C: -3.9	D: i	E: i	F: i	G: i	H: 1.4	I: 9.6	J: -1.5
NCCNCCNCCN
  A: i	B: i	C: 1.5	D: i	E: i	F: i	G: i	H: -1.8	I: 8.8	J: -1.9
CN1CCN(C(=S)c2cn(Cc3ccccc3F)c3ccccc23)CC1
  A: i	B: i	C: -1.7	D: i	E: i	F: i	G: i	H: -1.4	I: 7.7	J: 2.8
Cc1nc(NS(=O)(=O)c2ccccc2)sc1NC(=O)OC(C)C
  A: i	B: i	C: -3.5	D: i	E: i	F: i	G: i	H: 2.8	I: 0.6	J: -6.2
COc1ccc(NC(=S)Nc2ccccc2)cn1
  A: i	B: i	C: 0.6	D: i	E: i	F: i	G: i	H: -2.7	I: 1.2	J: -0.9
CCOC(=O)CN1CC23C=CC(O2)C(C(=O)NC2CCCCC2)C3C1=O (stereo unspecified)
  A: i	B: i	C: 0.6	D: i	E: i	F: i	G: i	H: -1.4	I: -1.4	J: -2.4
CC(C(=O)N1CCc2ccccc2C1)N1C(=O)c2ccccc2C1=O (stereo unspecified)
  A: i	B: i	C: -2.3	D: i	E: i	F: i	G: i	H: 1.5	I: 5.2	J: -1.6
O=C(c1ccc(Br)cc1)c1cc(-c2ccccn2)c(N2CCOCC2)s1
  A: i	B: i	C: -0.5	D: i	E: i	F: i	G: i	H: -0.5	I: -8.1	J: -0.2
O=CC(O)C1OC(=O)C(O)C1O (stereo unspecified)
  A: .	B: .	C: .	D: i	E: .	F: .	G: .	H: .	I: 0.2	J: .
CCOc1ccccc1CNC(=O)Cn1ccc2cc(S(=O)(=O)N3CCC(C)CC3)ccc21
  A: i	B: i	C: -0.6	D: i	E: i	F: i	G: i	H: -0.4	I: .	J: ?

The list is partial; count on the stated rates, not on these rows.
